Screening data: PubChem BioAssay, several laboratories
E coli growth: E. coli growth inhibition, primary screen, OD600; Escherichia coli growth, 23 h; active compounds read low; OD600 absorbance (test concentration not listed); 330,000 tested, 0.21% active; AID 1053175, 2014;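 active means OD600 absorbance below the run mean of sample wells minus 3.6 SD, in any replicate, cut at about 0.56 in these data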;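 further: stock transfer was 300 nL into about 60 µL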
RanGTP-Imp inh: inhibitors of RanGTP-importin-beta interaction, primary screen, biochemical, FRET, CFP-Ran, YFP-importin-beta, homogeneous. Ran GTPase (GTP-bound) - importin-beta complex. cell-free CFP-Ran/YFP-importin-beta FRET ratio. inhibition, % (concentration not given with the values). 300,000 tested, 1.1% active;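 active means most replicates above 15%; inconclusive means exactly half above 15%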;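 further: 0% = DMSO wells and 100% = Ran loaded with GDP instead of GTP; wells of about 40 µL received 100 nL stock; the first replicate is given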
UCH37 inh: inhibitors of human UCH37 deubiquitinase, primary screen, biochemical, Ub-AMC cleavage, fluorescence. Ubiquitin carboxyl-terminal hydrolase isozyme L5 (Homo sapiens), Q9Y5K5. purified proteasome/UCH37. inhibition, % (no concentration beside the values). 330,000 tested, 0.33% active. AID 588478, 2011;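 active means mean of two replicates above 20%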;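 further: 0% = compound-free wells with enzyme and 100% = wells lacking proteasome; stock transfer was 100 nL into about 20 µL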
Target sequence (Q9Y5K5 whole entry, looked up): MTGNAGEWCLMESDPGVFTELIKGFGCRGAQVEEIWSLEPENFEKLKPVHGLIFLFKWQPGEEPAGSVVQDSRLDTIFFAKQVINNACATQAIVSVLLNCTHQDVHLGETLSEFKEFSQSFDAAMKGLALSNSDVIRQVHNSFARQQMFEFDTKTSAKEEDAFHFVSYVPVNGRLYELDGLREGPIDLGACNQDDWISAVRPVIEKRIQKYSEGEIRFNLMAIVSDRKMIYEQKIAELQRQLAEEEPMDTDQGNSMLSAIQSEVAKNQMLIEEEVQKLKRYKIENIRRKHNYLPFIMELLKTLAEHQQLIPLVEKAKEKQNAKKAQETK
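Test system – human UCH37 enzyme supplied as purified proteasome complex · Incubation – 30 min preincubation with enzyme, 25 min cleavage at room temperature · Detection – AMC fluorescence from Ub-AMC cleavage, excitation 355 nm, emission 460 nm · Benchmarks – no-proteasome wells (full inhibition) and compound-free wells (no inhibition)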
AF4-AF9 inh: inhibitors of AF4 peptide binding to AF9, primary screen, biochemical, AlphaScreen, biotin-AF4 peptide, FLAG-AF9, single point | Protein AF-9 (Homo sapiens), P42568 | inhibition, % at 10 µM | 350,000 tested, 0.47% active;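 active means every replicate reaching a set inhibition limit, whatever the replicate mean, cut at about 25% in these data; inconclusive means mean inhibition reaches that limit but some replicates miss it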;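 further: 0% = plate neutral control median and 100% = total signal loss; the record names both 10 and 1 µM as test concentration; the first replicate is given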
Target sequence (P42568 whole entry, looked up): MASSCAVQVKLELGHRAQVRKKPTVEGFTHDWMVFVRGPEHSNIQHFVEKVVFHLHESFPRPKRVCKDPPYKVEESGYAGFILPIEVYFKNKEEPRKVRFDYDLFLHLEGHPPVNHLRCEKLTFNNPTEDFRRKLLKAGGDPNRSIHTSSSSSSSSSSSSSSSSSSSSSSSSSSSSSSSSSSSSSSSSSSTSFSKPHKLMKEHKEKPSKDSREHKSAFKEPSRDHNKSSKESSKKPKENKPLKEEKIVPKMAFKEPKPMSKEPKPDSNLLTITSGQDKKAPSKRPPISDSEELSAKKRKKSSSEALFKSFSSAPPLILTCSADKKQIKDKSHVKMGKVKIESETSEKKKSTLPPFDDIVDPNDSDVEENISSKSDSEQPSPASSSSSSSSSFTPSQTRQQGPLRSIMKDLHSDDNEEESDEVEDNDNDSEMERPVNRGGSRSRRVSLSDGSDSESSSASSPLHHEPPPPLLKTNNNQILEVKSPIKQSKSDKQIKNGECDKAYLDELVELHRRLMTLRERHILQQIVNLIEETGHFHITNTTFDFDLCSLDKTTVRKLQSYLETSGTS
HNF4A DNA FP: change in binding of human HNF4A to DNA, primary screen, biochemical, fluorescence polarization, FITC-DNA. Hepatocyte nuclear factor 4-alpha (Homo sapiens), P41235. 1 h. activity change, % at 10 µM. 360,000 tested, 0.3% active. AID 1224865, 2016; in the data active means activity change above about 30%, passing the limit was not always enough;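 further: controls were the assay level and a saturating level of protein; the project sought stronger binding though the title names inhibitors; some compounds called inactive have numbers as strong as hits; positive values seem to mean higher polarization but the record does not say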
Vif A3G: inhibitors of Vif binding to APOBEC3G peptide, primary screen, biochemical, TR-FRET, GST-Vif 1-94, biotin-A3G peptide, dose response retest (AID 1117319); TR-FRET GST-Vif / biotin-A3G peptide binding; higher % means a stronger effect; test concentration not given here; strong numbers were not always called active; inhibition, %, or IC50 in µM where a hit was titrated; 260,000 tested, 0.57% active;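 active means above the screen mean plus three standard deviations and confirmed in dose response; inconclusive means results disagree or hit not tested in dose response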;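 further: Vif residues 1-94 fused to GST binding biotinylated APOBEC3G peptide 110-148; 0% = full assay without inhibitor and 100% = GST in place of GST-Vif; retest series ran down from 100 µM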
FGF22 binding: binders of human FGF22 protein, primary screen, FGF22 synaptogenesis inhibitor project, biophysical, thermal shift, single point; Fibroblast growth factor 22 (Homo sapiens), Q9HCT0; recombinant FGF22 thermal shift, SYPRO orange fluorescence; percent of sucrose octasulfate shift, DMSO zero; calls only at 9.99 µM; 340,000 tested, 1.5% active;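 active means melting point raised past a set limit in the mean and every replicate; inconclusive means no clear call; three in four hits are not shown here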
Target sequence (Q9HCT0 whole entry, looked up): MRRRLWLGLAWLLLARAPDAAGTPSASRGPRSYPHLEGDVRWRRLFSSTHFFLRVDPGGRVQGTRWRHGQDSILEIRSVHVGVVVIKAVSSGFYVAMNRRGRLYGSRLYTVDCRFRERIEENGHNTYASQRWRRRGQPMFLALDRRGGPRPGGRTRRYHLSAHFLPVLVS
* marks the source's active call; other numbers are inactive results; i = inactive; ? = inconclusive; . = no result given. Not all compounds are listed. The share of hits here may be higher or lower than overall.

SMILES	E coli growth	RanGTP-Imp inh	UCH37 inh	AF4-AF9 inh	HNF4A DNA FP	Vif A3G	FGF22 binding
CC1Sc2ccc(S(=O)(=O)N3CCC(C(=O)N(C)Cc4ccco4)CC3)cc2NC1=O (stereo unspecified)	0.701	-0.8	5.1	2.2	16.6	.	i
Cc1nc2ccc(S(=O)(=O)Nc3ccccc3C)cc2s1	0.619	1.2	-0.8	2.3	3.0	19.9%	i
CCOc1ccc(CNC(=O)C(=O)c2cn(CC(=O)N3CCOCC3)c3ccccc23)cc1OC	0.69	2.5	7.2	0.1	-3.0	-5.2%	i
COc1ccc(OC)c(/C=C2\SC(=S)N(N3CCOCC3)C2=O)c1	0.645	5.3	3.4	3.7	7.8	-3.4%	i
Cc1cccc(N2C(=O)c3cccc4c(N)ccc(c34)C2=O)c1	.	-364.2	.	-40.0	-98.3	.	i
Cc1sc2nc(SCC(=O)NCc3cccs3)[nH]c(=O)c2c1C	0.663	-3.5	6.6	.	-4.5	-3.4%	.
COc1ccc(Nc2nc3cc(-c4ccsc4)sc3c(=O)n2C)cc1OC	.	.	.	6.2	6.0	.	i
COc1ccccc1N(CC(=O)NC(C)(C)C)C(=O)C1CSC(=O)C1 (stereo unspecified)	.	?	.	.	0.5	-5.0%	.
CN(C)c1ccc(S(=O)(=O)N2CCCCC2)cc1NC(=O)CCNC(=O)c1ccco1	0.662	.	3.9	-2.1	0.9	.	i
COc1cc(/C=C2\C(=N)N3N=CSC3=NC2=O)ccc1OS(=O)(=O)c1ccccc1[N+](=O)[O-]	0.671	0.6	3.9	2.8	2.7	-2.8%	i
O=C(COc1ccc2ccc(=O)oc2c1)NC1CCN(Cc2ccccc2)CC1	0.667	1.6	-16.5	-0.1	0.4	.	i
COc1ccc(CNCCSc2nnnn2C)c(OC)c1OC	0.708	?	0.6	-2.9	-0.1	1.8%	i
CCOC(=O)C1CCN(C(=O)C2(NC(=O)Nc3ccccc3Cl)CCCCC2)CC1	0.732	10.6	-0.9	.	-2.3	12.2%	.
CCn1c(=O)c2c(nc3n2CCCN3Cc2ccccc2)n(C)c1=O	0.66	0.1	1.3	1.0	-1.4	-6.1%	i
CC[C@@H](C)[C@H](CNC)NC[C@@H](Cc1cccc2ccccc12)NCCc1cccc(C(F)(F)F)c1	.	-1.7	1.8	.	-0.3	.	i
Nc1cc(N)nc(SCc2cc([N+](=O)[O-])cc3c2OCOC3)n1	0.68	2.7	4.5	4.4	4.3	74.1µM*	.
COC(=O)[C@@H](NC(=O)O[C@@H]1C(=O)c2ccc(OC)cc2O[C@H]1c1cccc(C(F)(F)F)c1)C(C)C	.	-2.5	3.4	.	.	-0.7%	.
Cc1nnc2ccc(N3CCC4(CC3)OCCO4)nn12	0.654	1.4	2.0	.	3.4	4.2%	.
Clc1ccc(-c2nc3cnccn3c2Nc2ccc3c(c2)OCO3)cc1	0.742	-0.4	-29.1	9.5	2.0	?	i
O=C(O)CC(NNC(=O)c1ccccc1)C(=O)Nc1ccc([N+](=O)[O-])cc1 (stereo unspecified)	0.69	1.2	4.8	-8.2	-0.6	-9.2%	i
Cc1ccc(S(=O)(=O)N(CC(=O)N2CCCCCC2)c2ccccc2)cc1	0.694	-1.6	0.7	.	1.1	-3.4%	.
CCOC(=O)C1CCCN(C(=O)C2CCN(c3nnc(-n4cccc4)s3)CC2)C1 (stereo unspecified)	0.728	?	2.6	0.9	-0.1	?	i
Cc1n[nH]c(C)c1S(=O)(=O)N1CCCC(C(=O)NCc2cccs2)C1 (stereo unspecified)	0.689	5.5	0.7	.	0.1	-4.5%	.
Cc1nn(Cc2ccccc2)c(C)c1NC(=O)CSc1nnc(-c2cc(Cl)ccc2O)n1C	0.693	-0.2	-2.0	4.6	2.5	6.6%	i
CC(C)[C@@H](C(=O)O)N(Cc1cccc(CN([C@H](C(=O)O)C(C)C)S(C)(=O)=O)c1)S(C)(=O)=O	.	0.7	-0.5	0.3	-3.7	.	i
O=S(=O)(NCC(c1cccnc1)N1CCN(Cc2ccccc2)CC1)c1ccc(F)cc1 (stereo unspecified)	0.678	0.5	1.0	3.2	-0.7	.	i
Cc1nn(C)c(C(=O)NNC(=O)NC2CCCCC2)c1Cl	0.719	2.3	3.7	-5.9	2.7	.	i
CC(C)c1ccc(N(CC(=O)NCC2CCCO2)C(=O)CCC(=O)Nc2nccs2)cc1 (stereo unspecified)	0.676	3.7	4.6	-1.4	-3.5	10.3%	i
O=C1c2ccccc2NC(c2c(Cl)cccc2Cl)N1Cc1ccccc1 (stereo unspecified)	0.819	1.6	-34.1	.	-0.1	-0.9%	.
CC(C)c1nc(SCC(=O)N2CCc3ccccc32)n[nH]1	0.7	-1.6	3.1	-1.4	2.7	-1.8%	i
Cc1ccc(CNc2oc(-c3ccco3)nc2S(=O)(=O)c2ccccc2)cc1	0.737	-0.2	-3.4	.	3.4	3.6%	.
COc1ccccc1C1=NOC(Cn2c(NCCCO)nc3c2c(=O)n(C)c(=O)n3C)C1 (stereo unspecified)	0.613	0.5	2.3	1.8	0.7	1.5%	i
COc1ccc2c(c1)cc(C(=O)N[C@@H](Cc1ccccc1)C(=O)O)n2C	0.646	2.3	-99.9	0.1	1.4	2.6%	i
CCCc1nnn(S(=O)(=O)c2ccc([N+](=O)[O-])cc2)c1CCC	.	.	.	-4.3	1.8	0.2%	i
OCCOc1ccc(CN2CCN(CCCc3ccccc3)C(CCO)C2)cc1 (stereo unspecified)	0.69	4.4	3.3	0.0	1.5	-2.5%	i
CC(=O)c1cccc(NC(=O)COC(=O)Cn2cnc3ccccc32)c1	0.651	.	-2.1	0.5	-2.9	.	i
COc1ccc(C(=O)NCCCNc2nc3cc(C)cc(C)c3cc2C#N)cc1	.	.	.	-1.8	3.4	-18.3%	i
CCOc1ccccc1C1NC(=O)NC(C)=C1C(=O)OCc1ccco1 (stereo unspecified)	0.671	4.1	0.8	.	4.8	?	.
COCCn1c(SCC(=O)N2CC(=O)Nc3ccccc32)nnc1-c1ccoc1C	0.685	0.4	1.9	.	-2.9	.	.
Cc1ccc(C(=O)N/C(=C/c2ccco2)C(=O)N2CCCCCC2)cc1	0.666	3.0	3.2	-5.0	6.0	.	i
COc1ccccc1-c1nc2s/c(=C\c3cccs3)c(=O)n2n1	.	-0.5	.	.	0.8	4.0%	.
Cc1nc2ccccc2c(=O)n1NC(=O)c1cc(Br)ccc1Cl	0.676	2.6	3.6	-7.7	1.1	-2.3%	i
O=C(NCc1ccccn1)c1c(O)c2cccc3c2n(c1=O)CC3	0.69	?	0.6	.	-0.7	23.2%	.
COc1ccccc1C1=NOC(C(=O)N2CCN(C(=O)c3ccco3)CC2)C1 (stereo unspecified)	0.682	0.9	0.3	0.9	-1.6	16.3%	i
O=P(Cc1cc[n+]([O-])cc1)(c1ccccc1)c1ccccc1	0.697	-0.4	-0.6	.	-3.9	28.3%	.
COC(=O)c1ccc(COc2ccccc2/C=C(\C#N)C(=O)Nc2ccc(C)cc2)cc1	.	0.3	.	.	-1.1	-4.0%	.
CCC(C)(C(=O)NC1CCCCC1)N(C(=O)C1CCC(=O)N1)c1ccccc1 (stereo unspecified)	0.697	2.7	-1.0	.	0.5	17.8%	.
Cc1cc(NC(=O)COC(=O)c2c(Cl)cccc2Cl)no1	0.651	.	2.0	0.3	-4.9	6.3%	i
CC1S/C(=C(\C#N)C(N)=O)N(c2ccc(F)cc2)C1=O (stereo unspecified)	0.663	3.3	1.8	.	-1.2	8.1%	.
CCOC(=O)CCCNC(=O)COC(=O)[C@@H]1CCCN1S(=O)(=O)c1ccc(Cl)cc1	0.68	0.6	1.5	.	-0.7	-4.7%	.
COc1ccc2nc(NC3=NC(c4ccccc4)CC(=O)N3)nc(C)c2c1 (stereo unspecified)	0.622	3.7	-62.2	-0.5	8.3	.	i
CCOC(=O)Cc1csc(NS(=O)(=O)c2ccc(SC)cc2)n1	0.721	-1.5	5.6	-1.3	0.0	-9.2%	i
CCCCn1c(SCC(=O)/C(C#N)=C(\C)N)nc2ccccc2c1=O	0.657	2.7	3.8	.	-0.4	.	.
CCC(C)(C)NC(=O)C(c1ccc(OC)cc1)N(C(=O)CCC(=O)Nc1cc(C)on1)c1ccc(OC)cc1OC (stereo unspecified)	0.674	7.1	2.1	1.9	1.7	.	i
Cc1ccc2nc(-c3ccccc3)cc(C(=O)NNC(=O)c3csc(N4CCOCC4)n3)c2c1	0.681	.	2.9	-0.6	-1.2	-0.2%	i
CCc1ccc(CN(C(=O)c2cc3ccccc3oc2=O)C2CCS(=O)(=O)C2)cc1 (stereo unspecified)	0.741	?	-1.0	.	-3.7	-4.3%	.
CCCn1c(N)c(C(=O)COC(=O)CNC(=O)c2ccccc2OCC)c(=O)[nH]c1=O	0.701	.	-1.4	-13.7	-1.4	.	i
CN(C(=O)CSc1nnc(-c2ccncc2)n1C)C1CCS(=O)(=O)C1 (stereo unspecified)	0.794	-2.7	2.4	.	-2.4	1.4%	.
Cc1cc(N/N=C/c2ccc(N(C)C)cc2)nc(NCc2ccccc2)n1	.	7.7	.	11.1	-0.1	7.7%	i
Cc1ccc(COc2ccsc2-c2n[nH]c(=S)n2C)cc1	0.7	-1.9	2.5	.	2.4	-1.0%	.

Sorted by molar mass (smallest number first): some entries from above.
SMILES	E coli growth	RanGTP-Imp inh	UCH37 inh	AF4-AF9 inh	HNF4A DNA FP	Vif A3G	FGF22 binding
CCC(C)(C(=O)NC1CCCCC1)N(C(=O)C1CCC(=O)N1)c1ccccc1 (stereo unspecified)	0.697	2.7	-1.0	.	0.5	17.8%	.
CCCn1c(N)c(C(=O)COC(=O)CNC(=O)c2ccccc2OCC)c(=O)[nH]c1=O	0.701	.	-1.4	-13.7	-1.4	.	i
CCOC(=O)CCCNC(=O)COC(=O)[C@@H]1CCCN1S(=O)(=O)c1ccc(Cl)cc1	0.68	0.6	1.5	.	-0.7	-4.7%	.

(further entries)
SMILES	E coli growth	RanGTP-Imp inh	UCH37 inh	AF4-AF9 inh	HNF4A DNA FP	Vif A3G	FGF22 binding
C=CC[C@@H](CC(=O)N(CCO)Cc1ccccc1)C(=O)N[C@@H](C)COC(=O)[C@@H](CC=C)Cc1ccc(F)cc1	.	.	-4.0	-39.0	8.4	.	i
COc1ccccc1Cn1c(=S)[nH]c2cc(C(=O)N3CCN(c4ccccc4OC)CC3)ccc2c1=O	0.726	-3.3	1.6	-2.3	-0.8	.	i
CSc1nc(-c2ccccc2)c(-c2ccccc2)[nH]1	0.742	4.0	-12.1	.	1.2	-7.2%	.
c1ccc(OCCNc2ccn3nc(-c4ccco4)cc3n2)cc1	.	.	.	-2.3	5.8	.	i
O=C(NCc1ccccn1)c1ccc(OC2CCN(Cc3ccccc3O)CC2)cc1	0.666	4.1	0.9	0.6	-2.1	3.0%	i
COc1ccc(C(=O)Nc2ccc3nc(N4CCCCC4)cc(C)c3c2)c(OC)c1	0.648	1.0	-33.1	1.6	.	-20.7%	.
CN1CCN(C2CC(=O)N(c3ccc4c(c3)OCCO4)C2=O)CC1 (stereo unspecified)	0.679	-2.2	-0.6	.	0.7	4.2%	.
COCCCNC(=O)c1cn(CCOC)c(=O)c2c1c1ccccc1n2C	0.65	-2.0	-123.9	-1.0	-0.7	-8.0%	i
Cc1cc(C)c(S(=O)(=O)Cc2ccccc2)c(Cl)n1	0.699	-0.6	0.0	-3.1	0.6	-3.1%	i
